High-throughput results from PubChem.
Rango complex inh: Rango-importin beta binding inhibition; Q14974; Rango CFP/YFP FRET sensor + importin beta, 45 min; Potency, µM (doses to about 92.2 µM), for inactives: at the top dose inhibition of complex formation; 340,000 tested, 0.031% active; active = rising FRET ratio curve, often small or poorly fitted; inconclusive = mostly compound fluorescence or quenching in the first reads; inactive = flat curves in all reads;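 note: potency is the fitted concentration of half-maximal effect; 0% = DMSO wells and 100% = buffer wells lacking importin beta; nearly all actives have a fitted effect of over 15% in size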
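Inhibition scored from the CFP 486 nm/YFP 530 nm FRET ratio 45 min after adding 0.125 microM importin beta to 50 nM Rango biosensor preincubated 5 min with compound (room temperature, PBS with DTT, Tween-20, BSA). No-importin wells as positive control.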
GLA inh pH 4.5: alpha-galactosidase A (human) inhibition, pH 4.5; P06280; 230,000 tested, under 10 active; purified enzyme, 4-MU-alpha-Gal fluorescence, pH 4.5; activity change, negative = inhibition, % at 105 µM; inconclusive = small, poorly fitted or top-dose-only inhibition, or a rising curve; inactive = flat fitted curve, though single readings scatter; no compound was filed as active;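 note: 0% = full activity with enzyme and -100% = basal without enzyme; dose as in the result columns while the protocol names 77 µM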
Target sequence (P06280 whole entry, looked up): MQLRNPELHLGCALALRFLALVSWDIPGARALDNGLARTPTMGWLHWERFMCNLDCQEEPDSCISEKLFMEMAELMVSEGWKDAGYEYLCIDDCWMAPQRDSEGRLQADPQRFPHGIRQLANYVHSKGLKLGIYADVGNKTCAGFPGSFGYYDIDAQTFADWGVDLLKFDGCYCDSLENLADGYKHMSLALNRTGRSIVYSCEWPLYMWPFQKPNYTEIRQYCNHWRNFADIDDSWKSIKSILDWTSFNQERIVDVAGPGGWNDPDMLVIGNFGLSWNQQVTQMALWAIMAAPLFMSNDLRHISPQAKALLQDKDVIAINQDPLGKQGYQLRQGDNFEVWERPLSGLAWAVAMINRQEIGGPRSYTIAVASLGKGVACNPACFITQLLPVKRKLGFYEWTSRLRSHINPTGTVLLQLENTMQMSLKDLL
Rango dissoc inh: inhibitors of RanGTP-induced Rango-importin beta complex dissociation; O95149+P62826; Biochemical FRET Rango-importin beta, RanGTP-induced dissociation; Potency, µM (top dose mostly 46.1 µM), inactives show at the top dose activity change, negative = inhibition; 340,000 tested, 0.071% active; active means falling FRET ratio curve, often poorly fitted, with flat reads before Ran was added; inconclusive means other falling curves, or compound fluorescence or quenching; inactive means flat or rising ratio curve;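 note: potency is the fitted concentration of half-maximal effect; % of control where 0% means no effect; nearly all actives have a fitted effect of over 45% in size; -100% = wells without RanGTP and RCC1; the record marks most hits as doubtful in a second field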
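Two FRET readings bracket the reaction: one 5 min after compound meets Rango–importin beta, another 45 min after RanGTP-RCC1 (0.6 uM Ran, 0.2 uM RCC1, 2 mM GTP) is added. Only the second defines inhibition.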
miR-21 reporter: raises the signal of a miR-21 reporter; HeLa miR-21 FLuc reporter, luciferase, 48 h; 340,000 tested, under 10 active; Potency, µM (titrated, usually from 38.3 µM), without a hit: top-dose reporter change, positive = more light; active = well fitted rising curve with a large enough effect; inconclusive = small, poorly fitted or top-dose-only effect; inactive = no such curve, though single readings can be large or run the other way;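 note: % of control where 0% means no effect; miR-21 action dims this reporter so a rising signal means less miR-21 action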
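Using DMEM plus 10% FBS, HeLa miR-21-FLuc cells are incubated with test compounds (final up to about 40uM) for 48 hours; firefly luciferase signal is then imaged following reagent-mediated lysis.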
The depositor's hits bear a star; ? = inconclusive; . = not tested or not shown; & = joins results of further samples.

GLA inh pH 4.5 | smiles | Rango dissoc inh | miR-21 reporter | Rango complex inh
. | COc1cccc(N(C(=O)c2csnn2)C(C(=O)NC2CCCC2)c2ccccc2)c1 (centres undefined) | ? | 2.0% | -0.5%
1.7 | Cc1ccc(-c2nnc(SCC(=O)Nc3ccc4c(c3)oc3ccccc34)n2C)c(Cl)c1 | 21.7% | 3.3% | -0.7%
. | Cc1cc(C(=O)N(C)CC2CCCN(CCc3ccc(F)cc3)C2)c(C)o1 (centres undefined) | 23.3% | 4.3% | -1.2%
. | CC(=O)NC1=CC(=C[N+](=O)[O-])C=C1O | ? | . | 1.1%
-0.9 | O=C(O)c1c2c(nc3ccccc13)-c1ccccc1CC2 | -7.9% | -18.4% | 1.6%
. | O=C(Nc1ccccc1O)c1cccc(S(=O)(=O)Nc2ccccc2O)c1 | 0.7% | . | -2.5%
. | COc1ccc(Cl)cc1NS(=O)(=O)c1cn(C)nc1C | -3.1% | -2.2% | -1.0%
-5.1 | COc1ccc(N=C2SC(CC(=O)Nc3ccccc3)C(=O)N2Cc2ccco2)cc1 (centres undefined) | 10.3% | 0.3% | 3.4%
. | O=C(O)C1C2C=CC(C2)C1C(=O)Nc1ccccc1Br (centres undefined) | 1.9% | 1.0% | 2.7%
. | O=C(Nc1ccccc1)C1CCCN1S(=O)(=O)c1ccc(Br)cc1 (centres undefined) | 0.0% | 0.6% | -3.3%
2.1&-0.6 | COC(=O)[C@@H]1C[C@@]2(O)[C@H](O)[C@H](O)[C@H](O)C[C@H]2N1Cc1ccc(C)s1 | 9.8% | -0.2% | ?
0.0 | Cc1ccc(CNCCC2=CCCCC2)cc1 | -7.1% | -20.8% | -0.3%
. | COc1ccc(C)cc1N1CC(C(=O)OCc2nc(N)nc(Nc3ccccc3C)n2)CC1=O (centres undefined) | 13.7% | . | -1.4%
. | NC(=O)CC(NC(=O)Cc1ccc(Br)cc1)c1ccc(N2CCCCCCC2)c([N+](=O)[O-])c1 (centres undefined) | 16.7% | -0.8% | -0.1%
5.1 | COCCCNS(=O)(=O)c1ccc(SC)cc1 | 5.5% | -2.1% | 2.4%
0.3 | S=C(NCC1CCCO1)NC1CC1 (centres undefined) | 1.2% | -2.3% | 2.7%
-10.7 | COc1ccc(CC(=O)Nc2ccc(-c3cn4ccc(C)cc4n3)cc2)cc1 | 9.8% | -28.8% | ?
-0.1 | O=C(Nc1ccc2c(c1)OCCO2)C1CCCN1S(=O)(=O)c1cccc2cccnc12 (centres undefined) | 6.2% | -29.5% | -3.5%
-4.6 | CN1CC=C2C(C#N)=C(N)C(C#N)(C#N)[C@H](c3ccoc3)[C@H]2C1 | ? | 3.6% | ?
5.0 | CC(C)(C)c1cc(C(=O)NN)n(Cc2ccc(Cl)cc2Cl)n1 | 0.6% | 12.6% | 3.5%
-3.3 | COc1ccc(/C(O)=C2/C(=O)C(=O)N(CCCN(C)C)C2c2ccc(C)o2)cc1Cl (centres undefined) | . | 2.6% | .
. | CC(CNC(=O)c1cc(COc2c(F)cccc2F)on1)c1ccccc1 (centres undefined) | -1.4% | -0.8% | 1.3%
8.3 | COC(=O)c1ccc(N2C(=O)CC(SCCN)C2=O)cc1 (centres undefined) | -3.2% | -43.6% | 3.0%
3.3 | Cc1ccc(-n2ncc3c(Nc4cccc(C(=O)O)c4)ncnc32)cc1 | 9.0% | -43.9%&-59.0% | 1.8%
. | O=C(CN(c1ccc(F)cc1)S(=O)(=O)c1ccccc1)NC1CC2CCC1C2 (centres undefined) | -8.3% | 1.2% | -4.7%
8.6 | O=P(Cc1cc[n+]([O-])cc1)(c1ccccc1)c1ccccc1 | -3.5% | -3.5% | -5.0%
. | COc1ccc2c(C(=O)NCCCCO)c(-c3ccc(S(C)(=O)=O)cc3)sc2c1 | 5.9% | . | -0.1%
. | CCOC(=O)C1CC(CN2C(=O)c3ccccc3C2=O)OC1=O (centres undefined) | -10.7% | . | 0.3%
. | Nc1ncc(-c2ccccc2)c(-c2ccc(O)cc2O)n1 | 16.7% | 0.1% | ?
. | COc1ccc(N(CC(=O)NCCSc2ccccn2)S(=O)(=O)c2ccccc2)c(OC)c1 | -2.0% | 6.6% | ?
-0.7 | CCCCNC(=O)C1COc2ccccc2O1 (centres undefined) | 5.9% | -9.4% | 3.3%
. | Cc1noc(C)c1NC(=O)Nc1cccc2c1O[C@H](CN(C)S(=O)(=O)c1cn(C)cn1)[C@@H](C)CN([C@H](C)CO)C2=O | 2.7% | . | -0.7%
. | CC(C)(C)C(=O)N1CCN(c2ncnc3scc(-c4ccccc4)c23)CC1 | -13.7% | 0.1% | 0.8%
-3.1 | CCc1nc(CN2CCCC(C(=O)c3ccc4c5c(cccc35)CC4)C2)c(C)[nH]1 (centres undefined) | 20.0% | 21.6% | 4.8%
. | CCCCN1C(Nc2ccccc2)=NC[C@@H]1Cc1ccccc1 | -3.9% | . | -2.2%
-1.3 | CC(=O)c1ccc(Oc2ncnc3sccc23)cc1 | -5.8% | -58.7% | -7.0%
3.2 | COc1ccc(N(CC(=O)NC2CCCC2)C(=O)Cn2nnc(-c3ccc(C)cc3)n2)cc1 | -9.1% | 0.1% | 0.5%
. | O=C(COC(=O)C1CCC1)NCc1ccc(Cl)cc1Cl | 0.3% | . | -1.7%
-14.7 | CN(C)CCN1C(=O)C(=O)/C(=C(/O)c2ccc3c(c2)OCCO3)C1c1ccccn1 (centres undefined) | ? | -26.0% | 0.0%
-6.6 | CCOc1ccccc1N(C(=O)c1snc(C(N)=O)c1N)C(C(=O)NC1CCCC1)c1ccco1 (centres undefined) | -12.7% | 1.6% | ?
. | Cc1ccccc1NC(=O)c1ccc2c(c1)C(=O)N(CC(C)C)C2=O | 49.7% | -1.2% | -1.3%
0.4 | OCCC1CN(Cc2nc(-c3ccc(F)cc3)cs2)CCN1CCc1ccccc1 (centres undefined) | 7.6% | -1.1% | 2.4%
-9.1 | Cc1ccnc(SCc2ccc([N+](=O)[O-])cc2)n1 | 0.4% | -35.6% | -1.5%
2.8 | O=C(Nc1ccc(Br)cc1)c1ccc(F)c(S(=O)(=O)NCc2cccs2)c1 | 1.3% | ? | 0.6%
. | COC(=O)c1ccc(CNC(=O)Cn2cnnn2)cc1 | 7.3% | -3.4% | -2.0%
. | COc1ccc(-c2csc(NC(=O)c3ccccc3F)c2C(=O)O)cc1 | -7.7% | 14.9% | 0.2%
-2.6 | Cc1ccc(/C=c2\sc3nc(-c4ccco4)nn3c2=O)o1 | -7.8% | -0.7% | ?
. | Cc1ccc(C)c(OCC(=O)NNC(=O)C2CC2)c1 | 9.4% | -2.1% | 1.1%
. | CN1C(=O)Cc2cc(S(=O)(=O)N3CCN(c4ccc(Cl)cc4)CC3)ccc21 | -0.1% | 3.9%&-1.2% | -0.4%
. | C/C(=N\NC(=O)c1ccoc1C)c1ccc(Br)s1 | 10.0% | -64.2% | -0.5%
-8.6 | O=c1c2ccccc2sn1-c1cc(S(=O)(=O)N2CCOCC2)ccc1N1CCOCC1 | 18.4% | 28.4% | -6.6%
. | NC(=O)C1CCN(Cc2cccc(OCc3ccccc3)c2)CC1 | -7.3% | -0.7% | -0.4%
1.8 | CN(C)C(CNC(=O)C1CCCN(C(=O)c2ccc(Cl)cc2)C1)c1ccco1 (centres undefined) | -6.4% | -0.1% | ?
-4.6 | N#Cc1ccc(CSCC(=O)O)cc1 | -13.1% | -0.8% | 1.9%
-3.6 | CCOC(=O)CC1C(=O)NCCN1C1CCCC1 (centres undefined) | 0.1% | 1.5% | 2.1%
. | OCC[C@H]1C[C@@H](O)[C@H](O)[C@@]2(CCc3ccccc3CO2)O1 | 1.1% | . | 0.0%
. | CN(Cc1ccc(F)cc1)C(=O)c1cccc(S(=O)(=O)N2CCN(Cc3ccccc3)CC2)c1 | -8.1% | . | -0.1%
7.0 | CC(c1ccccc1)N1CC(C(=O)NC2CCCC2)CC1=O (centres undefined) | -0.9% | 2.1% | -0.7%
-6.1 | COc1cc2nc(SCC(N)=O)n(CCC3=CCCCC3)c(=O)c2cc1OC | 8.2% | -3.6% | 5.0%
-13.0 | CCOC(=O)c1c(C)n(C)c2ccc(OC)c(NS(=O)(=O)c3ccc(Cl)s3)c12 | 9.3% | 0.5% | -0.6%

Continued; the last four above are carried over.
GLA inh pH 4.5 | smiles | Rango dissoc inh | miR-21 reporter | Rango complex inh
. | CN(Cc1ccc(F)cc1)C(=O)c1cccc(S(=O)(=O)N2CCN(Cc3ccccc3)CC2)c1 | -8.1% | . | -0.1%
7.0 | CC(c1ccccc1)N1CC(C(=O)NC2CCCC2)CC1=O (centres undefined) | -0.9% | 2.1% | -0.7%
-6.1 | COc1cc2nc(SCC(N)=O)n(CCC3=CCCCC3)c(=O)c2cc1OC | 8.2% | -3.6% | 5.0%
-13.0 | CCOC(=O)c1c(C)n(C)c2ccc(OC)c(NS(=O)(=O)c3ccc(Cl)s3)c12 | 9.3% | 0.5% | -0.6%
-2.7 | CCn1c2ccccc2c2cc(N=C3SC(CC(=O)Nc4ccccc4)C(=O)N3C)ccc21 (centres undefined) | 13.3% | 2.5% | 1.7%
-8.6 | Clc1nssc1=Nc1ccc(Br)cc1 | -11.6% | 4.7% | 3.8%
-7.3 | Cc1nn(-c2ccccc2)c(N)c1C(c1ccc(C(C)C)cc1)c1c(C)nn(-c2ccccc2)c1N | 1.9% | 5.4% | 0.0%
. | Cc1ccccc1Cn1c(NC2CCCC2)nc2c1c(=O)[nH]c(=O)n2C | -1.9% | -2.0% | 5.1%
-4.4 | S=c1[nH]nc(C2CCCCC2)n1/N=C/C(Cl)=C\c1ccccc1 | 0.9% | -26.6% | ?
-8.4 | CCOc1ccc(N2C(=O)/C(=C\c3ccc(O)c(OC)c3)S(=O)(=O)C2c2cccc([N+](=O)[O-])c2)cc1 (centres undefined) | 2.6% | 4.0% | -0.6%
3.6 | COc1c(C)cccc1C(=O)Nc1ccc(CN2CCCCC2)cc1 | -7.0% | -32.5% | ?
-19.9 | COc1ccc(NC(=O)CC2C(=O)N(c3ccc(Cl)cc3)C(=S)N2CCc2ccccn2)cc1 (centres undefined) | 4.7% | 29.7% | -1.8%
-10.5 | COc1ccc(O)c(/C=N/NC(=O)c2cc(=O)[nH]c3ccccc23)c1 | 6.7% | 15.5% | -0.2%
. | Cn1ccnc1SCC(=O)NCC(=O)Nc1ccc(F)c(F)c1F | -10.9% | . | 0.1%
0.2 | Cc1scc(C(=O)N/N=C/c2ccc(OCC(C)C)cc2)c1C | 3.1% | 4.1% | -0.3%
5.9 | CC(C)(C)NC(=O)C(c1ccco1)N(C(=O)c1ccc(CN2CCOCC2)o1)c1ccccc1 (centres undefined) | 6.3% | -3.0% | 0.1%
. | O=S(=O)(c1cccc(-c2n[nH]c(=S)n2-c2cccc(C(F)(F)F)c2)c1)N1CCOCC1 | -1.8% | . | 0.5%
. | COc1ccc(C(=O)NCC(c2ccco2)N2CCc3ccccc3C2)cc1 (centres undefined) | 8.5% | . | 2.7%
-11.2 | CCO[C@@H]1OC(C(=O)N2CCN(Cc3ccccc3)CC2)=C[C@H](c2ccc(C(F)(F)F)cc2)[C@H]1CCCO | -6.8% | 18.3% | 9.6%
0.9 | CCCCCn1c2c(c(=N)c3ccccc31)CCC2 | -1.4% | ? | -3.5%
. | O=C(CN1CCN(CC(=O)Nc2ccccc2F)CC1)Nc1cccc(F)c1 | -2.9% | 2.0% | -2.2%
. | COc1ccc(Br)cc1CNCC1CCCO1 (centres undefined) | 0.0% | -0.5% | 2.6%
-3.5 | Cc1cc(NC(=NC2CC2)c2ccccc2)n(-c2ccccc2)n1 | -4.0% | -4.2% | -0.9%
-2.7 | O=C(NCc1cccnc1)c1ccc(Br)s1 | -7.9% | -1.0% | 3.6%
-3.9 | OC(COCC(F)(F)C(F)(F)C(F)(F)C(F)F)Cn1c2ccc(Cl)cc2c2cc(Cl)ccc21 (centres undefined) | -15.1% | ? | -1.3%

Sorted by molecular weight (high to low): part of the list above.
GLA inh pH 4.5 | smiles | Rango dissoc inh | miR-21 reporter | Rango complex inh
. | O=C(CN1CCN(CC(=O)Nc2ccccc2F)CC1)Nc1cccc(F)c1 | -2.9% | 2.0% | -2.2%
-2.7 | O=C(NCc1cccnc1)c1ccc(Br)s1 | -7.9% | -1.0% | 3.6%
0.9 | CCCCCn1c2c(c(=N)c3ccccc31)CCC2 | -1.4% | ? | -3.5%

Some of the compounds tested; count on the stated rates, not on these rows.
